Source: PubChem BioAssay
Ab BasE inh: blocks the Acinetobacter baumannii siderophore enzyme BasE; purified BasE, fluorescence polarization binding displacement; 84,000 tested, 0.1% active; inhibition, % (test concentration not listed);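 active means both replicates above 25% with normal brightness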;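 further: 0% = negative plate control signal and 100% = positive plate control signal; stock transfer was 100 nL into about 30 µL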
LANA-nucl inh: LANA-nucleosome interaction inhibition. 51,000 tested, 0.3% active. z-score (no concentration beside the values). FITC-LANA1-23 / chicken nucleosome fluorescence polarization; stronger effect = lower value;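 active means both repeat wells score below -2 in polarization z-score versus plate sample wells, excluding overly bright wells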;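 further: 100 nL library stock added to about 30 µL; numbers are from one replicate; some results filed as inactive read as strong as hits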
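test system = FITC-LANA peptide and chicken nucleosomes | amount = 240 nM purified chicken nucleosomes (480 nM peptide binding sites), final | reagent = 50 nM FITC-LANA1-23 probe | medium = TEN-BT buffer, pH 7.5 | doses = single compound addition by pin transfer, 100 nL per well | timing = 10–45 min, room temperature | detection = fluorescence polarization | repeats = duplicate plates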
* marks the source's active call; other numbers are inactive results; & = joins results of further samples. Some of the compounds tested; count on the stated rates, not on these rows.

A first look:
For COc1ccc(OC)c(NC(=O)c2ccc(N3C(=O)CCC3=O)cc2)c1 the results were Ab BasE inh 0.3.
Screening COc1ccc2nc(-c3nc4ccccc4s3)sc2c1 returned Ab BasE inh -0.9 and LANA-nucl inh 1.3.
O=C1NC2(CCN(C(=O)c3ncoc3-c3ccccc3)CC2)Oc2ccccc21 was read as Ab BasE inh -1.9.

This part in full, repeating the preview:
For COc1ccc(OC)c(NC(=O)c2ccc(N3C(=O)CCC3=O)cc2)c1 the results were Ab BasE inh 0.3.
Screening COc1ccc2nc(-c3nc4ccccc4s3)sc2c1 returned Ab BasE inh -0.9 and LANA-nucl inh 1.3.
O=C1NC2(CCN(C(=O)c3ncoc3-c3ccccc3)CC2)Oc2ccccc21 was read as Ab BasE inh -1.9.
Screening CC1CSc2nc3sc4c(c3c(=O)n21)CCCC4 (stereo not given) returned Ab BasE inh 3.4 and LANA-nucl inh -0.47.
`O=C(/C=C/c1ccco1)NC(=S)NC1CCCCC1` gave Ab BasE inh -3.3 and LANA-nucl inh -1.3.
Screening O=C1CCC(C(=O)NN2C(=O)c3cccc4cccc(c34)C2=O)=NN1 returned Ab BasE inh 1.2.
`Cc1ccc(CNC(=O)CCN2N=C(c3ccccc3)CCC2=O)cc1` gave Ab BasE inh -0.1 and LANA-nucl inh 0.67.
Screening FC(F)(F)c1ccc(-c2nc(-c3cc(-c4ccccc4)no3)cs2)cc1 returned Ab BasE inh 2.1.
For CCCc1nn2cc(-c3ccccc3)nc2s1 the results were Ab BasE inh -0.1 and LANA-nucl inh -0.73.
`Cc1ccc(C(=O)Cn2nnc(-c3ccc(N)cc3)n2)cc1` gave Ab BasE inh -1.1 and LANA-nucl inh -0.54.
CC(C)S(=O)(=O)c1nc2ccccc2n1CC(=O)N1CCCc2ccccc21 was read as Ab BasE inh -0.2 and LANA-nucl inh 0.62.
C[C@H]1[C@H](NC(=O)/C(=N\OC(C)(C)C(=O)O)c2csc(N)n2)C(=O)N1S(=O)(=O)O was read as Ab BasE inh -1.0 and LANA-nucl inh 1.1&0.11.

Not a retest: an excerpt of the list.
For CCCc1nn2cc(-c3ccccc3)nc2s1 the results were Ab BasE inh -0.1 and LANA-nucl inh -0.73.
`Cc1ccc(C(=O)Cn2nnc(-c3ccc(N)cc3)n2)cc1` gave Ab BasE inh -1.1 and LANA-nucl inh -0.54.

More compounds:
For N=C1/C(=C2\Nc3ccccc3S2)CC(=O)N1C1CC1 the results were Ab BasE inh -0.1.
Screening COc1ccc(-c2ccnc(SCC(=O)N3CCOCC3)n2)cc1 returned Ab BasE inh 2.0.
`COc1ccc(NCC(=O)N/N=C2\CCc3ccccc32)cc1` gave Ab BasE inh 1.1.
COc1ccc(OCCn2c(-c3ccc(Cl)cc3)nc3ccccc3c2=O)cc1 was read as Ab BasE inh 3.7.
CCOC(=O)c1c(N=CN(C)C)c(C#N)c2n1CCC2 was read as Ab BasE inh 1.1.
Screening Cc1ccc(C2=N/C(=C\c3c(C)nn(-c4ccccc4)c3N3CCCC3)C(=O)O2)s1 returned Ab BasE inh 1.2.
Screening C=CCN1C(=O)/C(=C\C=C2/CCCN2C)SC1=S returned Ab BasE inh 7.7 and LANA-nucl inh 2.5.
Screening CCN(CC)CC(O)COc1ccc(C(C)(C)CC)cc1C(C)(C)CC (stereo not given) returned Ab BasE inh -0.9.
For Oc1ccc(O)c(CN2CCCCCC2)c1 the results were Ab BasE inh 4.7.
COc1cccc(NCc2nnc(SCC(=O)N3CCNC3=O)n2C2CCCCC2)c1 was read as Ab BasE inh 1.6.
Screening O=C(CN1C(=O)C2C3C=CC(C3)C2C1=O)Nc1nc(SCc2ccc(Cl)cc2)n[nH]1 (stereo not given) returned Ab BasE inh -2.5.
`CCCS(=O)(=O)N1CCN(c2ccc(NCC3CCCO3)nn2)CC1` (stereo not given) gave Ab BasE inh 0.2 and LANA-nucl inh 0.05.
CN(C)CCCNc1nnnn1-c1ccccc1 was read as Ab BasE inh 3.4.
For COC(CNC(=O)c1cc2c(s1)CS(=O)(=O)C2)OC the results were Ab BasE inh 2.4 and LANA-nucl inh 0.66.
Screening O=C(O)/C=C/c1ccc(N2CCCCCC2)cc1 returned Ab BasE inh 11.
Cc1ccc(S(=O)(=O)N2CCCC2)cc1C(=O)O was read as Ab BasE inh 1.2 and LANA-nucl inh 0.15.
`CN(C)CCN(C)Cc1cc(C(C)(C)C)c(O)c(C(C)(C)C)c1` gave Ab BasE inh 3.4 and LANA-nucl inh -0.14.
`O=C(c1ccc(Cl)cc1)N(Cc1cccnc1)Cc1cccnc1` gave LANA-nucl inh -0.27.
For COc1ccc(CCNC(=O)Cn2cnc3onc(-c4ccc(Cl)cc4)c3c2=O)cc1OC the results were Ab BasE inh -6.7 and LANA-nucl inh -0.39.
For Clc1ccccc1Oc1cnc2ccccc2n1 the results were LANA-nucl inh -1.8.
Screening Cc1cc(=O)n2c(c1C#N)SCCC2 returned Ab BasE inh 0.2.
For CN1CCC(=CC(=O)O)CC1 the results were Ab BasE inh 0.0 and LANA-nucl inh 0.03.
For CCC(C)NC(=O)Cn1nc(C)c(S(=O)(=O)N2CCCCC2)c1C (stereo not given) the results were Ab BasE inh 0.9.
CS(=O)(=O)c1ccc([C@@H](O)[C@@H](CO)NC(=O)C(Cl)Cl)cc1 was read as Ab BasE inh -1.0&-2.1 and LANA-nucl inh -0.57&0.61&-0.81.
`O=C1SC(Nc2ccc(Br)cc2)C(=O)N1Cc1ccccc1` (stereo not given) gave Ab BasE inh 0.5 and LANA-nucl inh -0.42.
For CS/C(=N\S(=O)(=O)c1ccccc1)NNc1ccccc1 the results were Ab BasE inh 2.3 and LANA-nucl inh 0.069.
N#Cc1ncc(C(F)(F)F)cc1Oc1ccc(O)cc1 was read as LANA-nucl inh -0.67.
Screening NC(CO)C(=O)NNCc1ccc(O)c(O)c1O (stereo not given) returned Ab BasE inh 2.2&0.0 and LANA-nucl inh 0.035&0.68&-0.22&0.27.
For CCOC(=O)c1cc(-c2ccc(Br)s2)n[nH]c1=O the results were Ab BasE inh 2.0 and LANA-nucl inh 0.017.
For O=C1NC2(CCCCC2)Nc2ccccc21 the results were Ab BasE inh 0.0 and LANA-nucl inh 0.32.
CCOC(=O)/C(C#N)=C/Nc1nnc(SCC#N)s1 was read as Ab BasE inh 0.7 and LANA-nucl inh 0.41.
`COc1cc(C(=O)N2CCCCC2)cc(OC)c1OC` gave Ab BasE inh 5.9 and LANA-nucl inh 0.43.
Screening O=C(Cc1n[nH]c(=O)c2ccccc12)NCC(c1ccc(F)cc1)N1CCOCC1 (stereo not given) returned Ab BasE inh 1.5.
For COc1ccc(CCNC(=O)C2CCCCC2)cc1OC the results were Ab BasE inh 3.3.
For Cc1cc(C(=O)OCC(=O)NCc2ccco2)c(C)o1 the results were Ab BasE inh 3.2.
Screening Cc1cc(C)n(C2CCS(=O)(=O)C2)n1 (stereo not given) returned LANA-nucl inh 1.
For CC(C)CC(C(=O)c1c(N)n(C)c(=O)n(C)c1=O)N1C(=O)c2ccccc2C1=O (stereo not given) the results were Ab BasE inh 1.1.
For O=C(Nc1ccc(C(F)(F)F)cc1)Nc1ccc(N2CCN(c3ncccc3C(F)(F)F)CC2)nc1 the results were Ab BasE inh 0.8 and LANA-nucl inh -2.2.
Screening C=CCn1c(O)c(C=Nc2ccccc2)sc1=S returned Ab BasE inh -4.6 and LANA-nucl inh 1.1.
Cc1ccc(NC(=O)Nc2ccc(C(F)(F)F)cc2)cc1NS(C)(=O)=O was read as Ab BasE inh -1.5 and LANA-nucl inh -0.35.
Screening Cc1cc(OCC(=O)NCc2ccc3c(c2)OCO3)ccc1Cl returned Ab BasE inh -3.7 and LANA-nucl inh 1.7.
`CCCn1c(SCCCc2ccccc2)nc2c1c(=O)[nH]c(=O)n2C` gave Ab BasE inh 1.1.
For C=CCc1cc(C=C2C(=O)NC(=O)NC2=O)cc(OC)c1OC the results were Ab BasE inh -3.2 and LANA-nucl inh 1.6.
CC(C)(C)C1CCc2nc(NC(=O)Cc3cn4ccsc4n3)sc2C1 (stereo not given) was read as Ab BasE inh 1.2.
Screening O=C(Cn1c(CN2CCOCC2)nc2sc3c(c2c1=O)CCC3)N1CCc2ccccc21 returned Ab BasE inh 0.9.
Screening CCN(CC)C(=O)CSc1ccc2c(c1)OCCO2 returned Ab BasE inh -1.9.
`Cc1csc2nc(O)c(C(=O)NCC(C)O)c(=O)n12` (stereo not given) gave Ab BasE inh 3.7 and LANA-nucl inh 0.52.
Screening CNC(=S)NC1CC2CCC(C1)N2Cc1ccccc1 (stereo not given) returned Ab BasE inh -0.6 and LANA-nucl inh 0.77.
Screening COc1ccc2nc(NC(=O)c3nn(C(C)C)c(=O)c4ccccc34)sc2c1 returned Ab BasE inh 0.4.
Screening Cc1ccc(N/N=C(\C#N)C(=O)c2cc(C)nn2C(C)(C)C)cc1 returned Ab BasE inh 2.2 and LANA-nucl inh 0.23.
Screening Nc1nnc(SCC(=O)N2CCN(c3ccccc3)CC2)s1 returned Ab BasE inh -0.1 and LANA-nucl inh 0.49.
`Cc1ccc(-c2ccc(CCC(=O)O)o2)cc1` gave Ab BasE inh -0.6.
`CC(N=C1NS(=O)(=O)c2ccccc21)c1ccc(F)cc1` (stereo not given) gave Ab BasE inh -0.6.
Cc1nnc2n1NC(c1ccc(Cl)cc1)=CS2 was read as Ab BasE inh 0.1 and LANA-nucl inh -1.6.
`O=C(O)CCCCC1SCC2NC(=O)NC21` (stereo not given) gave Ab BasE inh -2.9 and LANA-nucl inh -0.37&-0.85.
Screening CC(C)NC(=O)C1CCCN(C(=O)N2CCOc3ccccc32)C1 (stereo not given) returned Ab BasE inh -2.2 and LANA-nucl inh 1.8.
For O=c1[nH]c2cc3c(cc2cc1CN(Cc1nnnn1CCc1ccccc1)C1CCCC1)OCCO3 the results were Ab BasE inh 0.2 and LANA-nucl inh 0.59.
Cc1ccc(Oc2ccc3c(c2)C(=O)N(c2cccc(O)c2)C3=O)cc1 was read as Ab BasE inh 3.3 and LANA-nucl inh -0.06.
For CN1CCN(CC(=O)CCN2C(=O)/C(=C/c3ccccc3Cl)SC2=S)CC1 the results were Ab BasE inh -0.8 and LANA-nucl inh 0.37.
`Cc1noc2ncnc(SCC(=O)Nc3cc(Cl)cc(Cl)c3)c12` gave Ab BasE inh 0.5.
Screening COCCNC(=O)c1cc2ncc(Br)cn2n1 returned Ab BasE inh -0.6 and LANA-nucl inh -0.26.
Screening CCCCC[C@H](O)/C=C/C=C\CCCCCCCC(=O)O returned Ab BasE inh 2.0 and LANA-nucl inh -0.54.
For CCOC(=O)CSc1nnc(CSc2nc(N)c3c(C)c(C)sc3n2)n1-c1ccccc1 the results were Ab BasE inh -2.5 and LANA-nucl inh 0.29.
Screening O=C(c1nn2c(C(F)(F)F)cc(-c3ccccc3)nc2c1Br)N1CCN2CCCC2C1 (stereo not given) returned Ab BasE inh 2.9.
`c1ccc(-c2nc(SCC3CCOCO3)oc2-c2ccccc2)cc1` (stereo not given) gave Ab BasE inh 1.8.
`CCC(=O)Nc1ccc(C(=O)CN2C(=O)NC3(CCCc4ccccc43)C2=O)cc1` (stereo not given) gave Ab BasE inh 2.4.
For O=C(NC(=S)c1c(-c2ccccc2)cc2ccccn12)c1ccccc1 the results were Ab BasE inh -5.0.
Screening C=CCc1c(C)nc(SC)nc1Nc1ccc(C)cc1 returned Ab BasE inh 1.0 and LANA-nucl inh -0.7.
For CCc1ccc(NC(=O)C2CC(=O)Nc3ncnn32)cc1 (stereo not given) the results were Ab BasE inh 0.3 and LANA-nucl inh -0.91.
For CC(=O)N1CCN(CC(O)COCc2ccccc2F)CC1 (stereo not given) the results were Ab BasE inh 0.3.
`Cc1ccccc1C(=O)OCC(=O)c1sc2ccc(Cl)cc2c1C` gave Ab BasE inh 4.3.
For O=C(Cc1csc2nc3sc4c(c3c(=O)n12)CCC4)N(CCO)CCO the results were Ab BasE inh 1.1.
For COC(=O)c1ccc(C(c2cc3c(cc2O)OCO3)N2CCN(c3ccccc3)CC2)cc1 (stereo not given) the results were Ab BasE inh 1.1.
`COC(=O)c1cccc(COC(=O)c2cccnc2SC)c1` gave Ab BasE inh 2.0.
For CCCSc1nnc(Nc2ccccc2OC)s1 the results were Ab BasE inh -0.5.
COC(=O)/C=C1/N/C(=N/c2nc3cc(C)ccc3o2)NC1=O was read as Ab BasE inh -1.4 and LANA-nucl inh -0.085.
CCOCC(=O)Nc1cccc(Br)c1 was read as Ab BasE inh -0.5 and LANA-nucl inh 1.1.
CC1CCc2c(sc3ncnc(NC4CC4)c23)C1 (stereo not given) was read as Ab BasE inh -0.8.
O=C1C(=O)N(CCCN2CCOCC2)C(c2ccccc2)/C1=C(\O)c1ccc(S(=O)(=O)N2CCOCC2)cc1 (stereo not given) was read as Ab BasE inh 0.9 and LANA-nucl inh 0.73.
Screening CC(C)c1ccc(NC(=O)CSc2n[nH]c(=O)n2Cc2ccco2)cc1 returned Ab BasE inh -0.4 and LANA-nucl inh -1.4.
Cc1ccc2[nH]cc(CCNC(=O)C3CCCO3)c2c1 (stereo not given) was read as Ab BasE inh 2.0 and LANA-nucl inh 0.23.
`CCOC(=O)Nc1ccc2c(C)cc(=O)oc2c1` gave Ab BasE inh 0.0 and LANA-nucl inh 0.18.

Sorted by formula weight (low to high): some entries from above.
CCOCC(=O)Nc1cccc(Br)c1 was read as Ab BasE inh -0.5 and LANA-nucl inh 1.1.
Cc1ccc2[nH]cc(CCNC(=O)C3CCCO3)c2c1 (stereo not given) was read as Ab BasE inh 2.0 and LANA-nucl inh 0.23.
COC(=O)/C=C1/N/C(=N/c2nc3cc(C)ccc3o2)NC1=O was read as Ab BasE inh -1.4 and LANA-nucl inh -0.085.
O=C1C(=O)N(CCCN2CCOCC2)C(c2ccccc2)/C1=C(\O)c1ccc(S(=O)(=O)N2CCOCC2)cc1 (stereo not given) was read as Ab BasE inh 0.9 and LANA-nucl inh 0.73.
